Screening data from PubChem.
A647 fluor: A647 region autofluorescence | Compound fluorescence, A647 channel (570/671 nm), Tris buffer | 59,000 tested, under 10 active | AID 592 | max dye-equivalent concentration, M; active means above 1 µM dye equivalent; inconclusive means 0.1 to 1 µM; inactive means 0.1 µM or less;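 note: values scaled relative to a standard on each plate; highest value over a series up to 38 µM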
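Spectral profiling of library compounds in pH 8.0 Tris: 15 min room-temperature incubation, single ex/em pair (570/671 nm), response normalized to Alexa 647 equivalents.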
AID923: qHTS Assay for Allosteric/Competitive Inhibitors of Caspase-1: Spectroscopic Profiling in AFC Spectral Region | AID 923, 2007 | Potency, µM (doses to about 57.5 µM), without a hit: at the top dose fluorescence increase, hits mostly activators | compound fluorescence, AFC spectral region (405/520 nm); almost no hit is shown here | actives 1.1% (n = 75,000); active = well fitted activation curve with a large enough effect; inconclusive = small, poorly fitted or top-dose-only effect;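 note: potency is the fitted concentration of half-maximal effect; 0% is about no effect; scaled to a free AFC standard on each plate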
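Titrations up to 57 uM read every 20 sec for 3 min (405/520 nm) with 50 nM caspase 1 and 5 uM Ac-WEHD-AFC, pH 7.5 HEPES buffer. Fluorescence-vs-time intercept gave baseline, scaled against on-plate AFC standard.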
A488 fluor: compound fluoresces in the A488 spectral region | actives 0.1% (n = 59,000) | compound autofluorescence, A488 spectral region, dye equivalency; active compounds read high | AID 591 | max dye equivalency, M; active = above 10 nM dye equivalent; inconclusive = 1 to 10 nM; inactive = 1 nM or less; about half of its hits are not listed in these tables;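 note: highest value over a series up to 38 µM; compound alone in buffer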
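Intrinsic compound fluorescence is measured in 100 mM Tris buffer at pH 8.0 following 15 min incubation at room temperature. Intensities at 480 nm excitation/540 nm emission are calibrated to an on-plate A488 concentration series, giving dye-equivalent concentrations.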
Resorufin autofl: resorufin region autofluorescence. Compound fluorescence, resorufin region 547/598 nm, buffer; active compounds read high. max dye-equivalent concentration, M. actives 0.04% (n = 59,000). AID 588; active = above 10 nM dye equivalent; inconclusive = 1 to 10 nM; inactive = 1 nM or less; a few of its hits are not listed in these tables; note: highest value over a series up to 38 µM
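Intrinsic fluorescence profiled in the resorufin window (ex 547 nm, em 598 nm) after 15 min at room temperature in pH 8.0 Tris buffer (100 mM); responses normalized against a six-point resorufin standard series as dye-equivalent concentration.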
TSHR agonist: agonists of human thyroid stimulating hormone receptor; P16473; HEK293-CNG-TSHR cells (CNG channel as cAMP sensor), membrane potential dye, cAMP; Potency, µM (doses to about 57.1 µM), inactives show at the highest dose activation, actives largely listed as activators; actives 0.48% (n = 73,000); AID 926; active = well fitted activation curve of enough size with the parental cells flat; inconclusive = any curve in the parental cells; inactive = parental cells flat and receptor cells flat or falling; note: potency is the fitted concentration of half-maximal effect; % of control where 0% means no effect; weak receptor curves with flat parental cells got no call and are not listed
Target sequence (P16473 whole entry, looked up): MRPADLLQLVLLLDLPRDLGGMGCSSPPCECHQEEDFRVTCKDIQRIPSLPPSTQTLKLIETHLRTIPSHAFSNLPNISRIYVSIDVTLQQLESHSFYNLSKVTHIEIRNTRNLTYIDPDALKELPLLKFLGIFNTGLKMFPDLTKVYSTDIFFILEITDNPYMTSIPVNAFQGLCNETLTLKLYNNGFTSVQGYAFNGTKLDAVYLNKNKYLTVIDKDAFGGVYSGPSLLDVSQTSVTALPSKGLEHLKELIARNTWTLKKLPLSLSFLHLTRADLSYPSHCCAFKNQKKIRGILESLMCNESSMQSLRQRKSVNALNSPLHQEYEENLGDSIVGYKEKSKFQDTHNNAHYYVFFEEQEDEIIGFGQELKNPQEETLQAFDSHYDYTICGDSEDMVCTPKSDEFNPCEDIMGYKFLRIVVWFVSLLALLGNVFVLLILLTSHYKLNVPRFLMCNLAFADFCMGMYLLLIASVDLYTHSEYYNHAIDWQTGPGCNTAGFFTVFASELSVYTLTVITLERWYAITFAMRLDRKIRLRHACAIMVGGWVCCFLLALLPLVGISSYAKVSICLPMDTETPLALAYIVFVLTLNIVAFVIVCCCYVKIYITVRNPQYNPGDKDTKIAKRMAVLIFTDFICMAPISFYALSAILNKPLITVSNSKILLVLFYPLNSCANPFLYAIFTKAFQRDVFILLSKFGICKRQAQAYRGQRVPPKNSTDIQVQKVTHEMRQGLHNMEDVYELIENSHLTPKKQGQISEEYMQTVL
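HEK 293 cells stably expressing TSHR and a cAMP-gated CNG channel; parental CNG-only cells as counterscreen. Cells preloaded 60 min with membrane potential dye plus 100 uM RO 20-1724, then compound 30 min; fluorescence read at 590 nm.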
Numbers without * were called inactive; i = inactive; ? = inconclusive; · = no result given; [ ] = remark or other dose.

Results follow in this order: A647 fluor, AID923, A488 fluor, Resorufin autofl, TSHR agonist
#1 CCC(c1nnnn1Cc1ccc2c(c1)OCO2)N1CCN(c2ccccc2)CC1 (centres undefined)
 : 6.4e-09, 0.7%, i, i, ?
#2 O=C(Nc1ccc2nc(-c3ccco3)[nH]c2c1)c1ccco1
 : 1e-09, 3.1%, i, i, 8%
#3 COC(=O)c1ccc(Cn2cc(Cl)cn2)cc1
 : 2.9e-09, -2.0%, i, i, -8%
#4 COc1ccc(S(=O)(=O)N2CCCN(CC(=O)Nc3ccc(OC)c(Cl)c3)CC2)cc1
 : 4e-08, 1.0%, i, i, ·
#5 O=C(CCN1CCc2ccccc2C1)Nc1ccccc1
 : ·, 1.8%, ·, ·, 8%[11.4 µM]
#6 CCOC(=O)c1ccc(NC(=O)CCc2ccc(C)o2)cc1
 : ·, -0.5%, ·, ·, ?
#7 CCn1c(/C=N/n2cnnc2)nc2ccccc21
 : ·, 4.2%, ·, ·, -14%
#8 O=C(CSc1ncccn1)c1ccccc1Br
 : 1e-09, -1.6%, i, i, 1%
#9 Cc1ccc2cc(C(c3nnnn3C3CCCC3)N(Cc3cccnc3)Cc3ccco3)c(=O)[nH]c2c1 (centres undefined)
 : 1e-09, -3.3%, i, i, ?
#10 CCOC(=O)C1=C(C)NC(=O)CC1c1cc2c(cc1Br)OCO2 (centres undefined)
 : ·, -1.4%, ·, ·, ?
#11 Cn1c(SCC(=O)c2ccc(F)cc2)nc2cccnc21
 : 6e-09, -1.5%, i, i, 30%
#12 NCCNC[C@H](O)CO
 : 4e-08, -1.2%[11.5 µM], i, i, -1%[11.4 µM]
#13 Cn1ncc(N=Cc2ccccc2O)c1C(=O)N1CCOCC1
 : 1e-09, ·, i, i, ·
#14 COc1ccc(-c2ccc(OC)cc2C(=O)O)cc1
 : 5.9e-09, -0.9%, i, i, -3%
#15 C=CCn1cnc2c(c1=O)c1nc3ccccc3nc1n2-c1ccccc1
 : 2.6e-08, 10%, i, i, -1%
#16 CCNc1nc(N2CCOCC2)nc(N(c2ccccc2)c2ccccc2)n1
 : 4.5e-08, 0.6%, i, i, 13%
#17 O=C(Nc1ccccc1)c1ccccc1OCC(O)CN1C(=O)c2ccccc2S1(=O)=O (centres undefined)
 : 5.4e-08, 1.7%, i, i, 22%
#18 COCCCNC(=O)Cn1nnc(-c2ccc(NC(=O)c3ccccc3OC)cc2)n1
 : 3.8e-08, -0.7%, i, i, 18%
#19 O=C1Nc2ccccc2SC(c2ccccc2)C1O (centres undefined)
 : 7.1e-09, -1.4%, i, i, 0%
#20 Cc1ccc(S(=O)(=O)N2CCOCC2)cc1C(=O)NCc1ccc(F)cc1
 : 9.4e-09, 0.5%, i, i, 4%
#21 CC1(C)Cn2c(nnc2-c2cccc(O)c2)S1
 : 2.6e-08, 1.3%, i, i, 5%
#22 CCS(=O)(=O)N1CCN(S(=O)(=O)c2ccc(F)cc2)CC1
 : 1.6e-09, 1.8%, i, i, -2%
#23 CC(=O)Nc1ccc(NC(=O)CN2CCCC(C)C2)c(Cl)c1 (centres undefined)
 : 1e-09, -1.1%, i, i, 8%
#24 CCCc1nc2ccccc2c(C(=O)OCc2nnc(-c3cc(OC)c(OC)c(OC)c3)o2)c1CC
 : 5.4e-08, 2.2%, i, i, ?
#25 O=C(O)C(Cc1ccccc1)n1cnnn1 (centres undefined)
 : 5e-09, -1.8%, i, i, 2%
#26 COc1ccccc1C(c1nnnn1Cc1ccccc1)N1CCN(c2nc3ccccc3s2)CC1 (centres undefined)
 : 7.1e-09, 1.1%, i, i, 11%
#27 Cc1cc(C)nc(-n2nc(C)cc2NC(=O)c2ccc3c(c2)OCO3)n1
 : 7.9e-09, 0.3%, i, i, -7%
#28 CCCC(C)C(=O)Nc1ccc(Cl)cn1 (centres undefined)
 : 5.2e-09, 0.7%, i, i, 4%
#29 C=Cn1nc(C)c2ccccc2c1=O
 : 1.2e-08, 0.1%, i, i, 1%
#30 O=C(CSc1ncn[nH]1)c1ccc2c(c1)OCCO2
 : 1.5e-08, -1.3%, i, i, -2%
#31 Cc1ccc(OCC(=O)n2cnnc2N)c(C)c1
 : 2.4e-09, -1.0%, i, i, 6%
#32 CC(O)c1cccc(NC2=CC(=O)CC(C)(C)C2)c1 (centres undefined)
 : 3.4e-09, -1.0%, i, i, ·
#33 CCc1nnc(NC(=O)CSc2nnc(Cc3ccccc3)n2Cc2ccccc2)s1
 : 1e-09, -1.5%, i, i, ·
#34 COc1ccc(-n2c(SCC(=O)Nc3ccc4c(c3)OCO4)nc3ccccc3c2=O)cc1
 : 1e-09, -0.1%, i, i, 12%
#35 COc1ccc(C(=O)N2CCC[C@@]3(CCN(Cc4cc(C(F)(F)F)cc(C(F)(F)F)c4)C3)C2)cc1
 : 1e-09, 3.4%, i, i, -3%
#36 O=C(O)C1C2C=CC(C2)C1C(=O)NCCc1ccncc1 (centres undefined)
 : 9.2e-09, -0.2%, i, i, 3%
#37 O=C(CN1C(=O)C2C3C=CC(C3)C2C1=O)N1CC(=O)N(CCc2ccccc2)C(=O)C1 (centres undefined)
 : 1e-09, 0.7%, i, i, ?
#38 O=C(O)CCN1C(=O)C(=C2CCCCCC2)SC1=S
 : 2e-09, -0.5%, i, i, -7%
#39 COc1ccc(-c2nc3ccccc3c(=O)n2CCCN2CCOCC2)cc1
 : 1.3e-08, -1.5%, i, i, -2%
#40 Cc1ccc(-c2nnc(N3CCOCC3)c3ccccc23)cc1S(=O)(=O)NCC1CCCO1 (centres undefined)
 : ·, 0.4%, ·, ·, 9%
#41 COc1cc(NC(=O)c2ccco2)c(OC)cc1NC(=O)CCC(=O)Nc1cc(C)ccc1C
 : 1e-09, 3.8%, i, i, 6%
#42 COc1ccc(OC)c(NC(=O)CSc2nnc(CNc3ccc(F)cc3)o2)c1
 : 1e-09, 0.6%, i, i, ?
#43 O=c1c2cnn(-c3ccccc3)c2ncn1Cc1ccccc1
 : 3.5e-09, -0.2%, i, i, 2%
#44 CCCCCCOc1ccc(N2C(=O)CC(N3CCC(C(=O)OCC)CC3)C2=O)cc1 (centres undefined)
 : ·, -0.7%, ·, ·, 0%
#45 Cc1ccc(Cn2ccc(NC(=O)c3cc(-c4cccc(Cl)c4)on3)n2)cc1
 : 1e-09, -0.2%, i, i, ?
#46 CCOC(=O)CNC(=O)CSc1nnc(Cn2c(=O)sc3ccccc32)n1C
 : ·, -0.6%, ·, ·, ?
#47 N#Cc1nc(COc2ccc(F)cc2)oc1N1CCN(Cc2ccccc2)CC1
 : 3.6e-09, -2.6%, i, i, ?
#48 OCCc1ccc(-c2ccc(Cl)cc2)o1
 : 1.6e-09, 2.4%, i, i, -6%
#49 COc1ccc(S(=O)(=O)Cc2ccc(C(=O)NCc3ccccn3)o2)cc1
 : ·, -1.2%, ·, ·, 1%
#50 COc1ccc(Cl)cc1C(=O)Nn1c(C)nc2ccccc2c1=O
 : 1e-09, 0.3%, i, i, -3%
#51 Cc1onc(-c2ccccc2Cl)c1C(=O)NCCCN1CCOCC1
 : 2.6e-09, 0.9%, i, i, 0%
#52 CC[C@@H](Nc1ncnc2nc[nH]c12)C(=O)O
 : 1e-09, 1.7%[11.5 µM], i, i, 3%[11.4 µM]
#53 Cc1ccc(S(=O)(=O)Nc2ccccc2F)cc1C(=O)NCCCN1CCCC1=O
 : 3.2e-09, 0.1%, i, i, -2%
#54 Cc1ccc(C2CC(=O)c3cnc(N4CC(C)CC(C)C4)nc3C2)cc1 (centres undefined)
 : 1e-09, -0.7%, i, i, ?
#55 COc1cccc(C(C(=O)NC(C)(C)C)N(C(=O)CCC(=O)Nc2cc(C)on2)C(C)C)c1OC (centres undefined)
 : 1e-09, 0.5%, i, i, 7%
#56 O=C(O)CCCC(=O)NCCCc1ccccc1
 : ·, 2.0%, ·, ·, 4%[11.4 µM]
#57 COc1ccc(S(=O)(=O)Nc2ccccc2OC)cc1C
 : 2e-08, -0.2%, i, i, 12%
#58 COc1cc(NS(=O)(=O)c2cc(C)ccc2OC)c(OC)cc1Cl
 : 6.7e-08, -1.3%, i, i, 17%
#59 CC(=O)c1c(C)nn(C(C)CC(=O)O)c1C (centres undefined)
 : 2.1e-08, -2.2%, i, i, 7%
#60 Cc1cc(C)c(C#N)c(SCC(=O)c2cccs2)n1
 : ·, 0.4%, ·, ·, ?

Continuation:
Results follow in this order: A647 fluor, AID923, A488 fluor, Resorufin autofl, TSHR agonist
#61 Cc1cc2oc(C(=O)Nc3c(C)n(C)n(-c4ccccc4)c3=O)c(C)c2cc1C
 : 1e-09, -1.6%, i, i, 15%
#62 COc1ccc(C2C(C(=O)N3CCN(c4ccc(OC)cc4)CC3)c3ccccc3C(=O)N2C)cc1 (centres undefined)
 : 3.9e-09, 0.1%, i, i, 5%
#63 NS(=O)(=O)c1ccc(N=C2C(=O)Nc3ccccc32)cc1
 : 1.8e-09, 2.2%[11.5 µM], i, i, 4%[11.4 µM]
#64 CCOC(=O)c1cnn(-c2cc(C)nc3c(-c4ccccc4)cnn23)c1N
 : 3.8e-09, 4.1%, i, i, 22%
#65 Cc1occc1C(=O)Nc1ccc(S(=O)(=O)N2CCN(C)CC2)cc1
 : 1e-09, -1.1%, i, i, -2%
#66 CC(C)CC1(C)NC(=O)NC1=O (centres undefined)
 : 1.7e-08, 0.4%, i, i, 3%
#67 O=C1SC(c2ccccc2)=N/C1=C/c1ccco1
 : 1.7e-08, 4.6%, i, i, -2%
#68 CN(C)c1ncnc2ccc(-c3cccc(C#N)c3)cc12
 : 3.7e-08, -1.2%, i, i, 12%
#69 O=C(c1ccc(F)cc1F)N(Cc1ccccn1)Cc1ccco1
 : 4e-08, 0.9%, i, i, 20%
#70 CCOc1cc(-c2c(C)c(C)nc(N)c2C#N)ccc1O
 : 2.3e-08, -0.2%, i, i, 10%
#71 O=C(CN(C1CCCCC1)S(=O)(=O)c1ccc(Cl)cc1)NCc1cccnc1
 : ·, 4.3%, ·, ·, 13%
#72 CCOc1ccc2[nH]cc(C(=O)O)c(=O)c2c1
 : 1.1e-09, -0.3%, i, i, -8%
#73 CN(C)Cc1ccccc1-c1cncnc1NCc1cccs1
 : 1e-09, -1.5%, i, i, 6%
#74 O=C1C(=O)N(Cc2ccc(Cl)c(Cl)c2)c2ccccc21
 : ·, -3.3%, ·, ·, ?
#75 COc1ccc(N2CCN(C(=O)c3ccc(C)cc3Cl)CC2)cc1
 : 1.3e-09, -0.3%, i, i, -3%
#76 Cc1ccc(C)c(N2CCN(C(=O)C3CCN(c4nnc(N5CCCC5=O)s4)CC3)CC2)c1
 : 3.4e-09, 1.1%, i, i, 9%
#77 CCCc1cc(C(=O)NCCc2ccccc2)no1
 : ·, -0.5%, ·, ·, 8%
#78 COc1ccc(NC(=O)Cn2cccc2)cc1Cl
 : 3.3e-08, -0.1%, i, i, 16%[11.4 µM]
#79 COC(=O)C(C(=O)N1CCN(C)CC1)C1CCCCCC1 (centres undefined)
 : 4.5e-08, -1.8%, i, i, 25%
#80 CC[C@H]1CC[C@H]2[C@@H]3CC=C4C[C@H](OC(C)=O)[C@@H](N)C[C@@]4(C)[C@H]3CC[C@@]12C
 : 1e-09, 1.4%[11.5 µM], i, i, -2%[11.4 µM]
#81 Cc1cc(NC(=O)Cc2ccccc2)no1
 : 4.3e-08, 1.4%, i, i, 4%
#82 O=C(CN1C(=O)CSC1=O)Nc1ccc(N2CCOCC2)cc1
 : 1e-09, -0.2%, i, i, -1%[11.4 µM]

This is a subset, so the mix of outcomes need not match the whole.
